Screens from PubChem.
PINK1 modulator = A Quantitative High throughput Screen to Identify Chemical Modulators of PINK1 Expression | PINK1 immunofluorescence, high-content cytometry, 24 h | Potency, µM (doses to about 76.6 µM), for the others: at the top dose activation (PINK1 increase), actives largely listed as activators | actives 0.2% (n = 410,000) | AID 624263, 2012; active = well fitted activation curve with a large enough effect; inconclusive = small, poorly fitted or top-dose-only effect; inactive = flat fitted curve, though single readings scatter; cell line not stated here;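 further: % of control where 0% means no effect; nearly all actives have a fitted effect of over 65% in size; a mitochondrial uncoupler was the plate control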
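Stable cell line treated 24 h with compounds at 5 concentrations (CCCP controls), then fixed and immunostained for PINK1 plus nuclear and cell stains; PINK1 immunofluorescence quantified by laser-scanning microplate cytometry.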
ClpP mod = qHTS Assay for Activators of ClpP | purified B. subtilis ClpP, FRET peptide cleavage, 20 min | Potency, µM (doses to about 57.5 µM), without a hit: at the highest dose activity change, negative = active | actives 1.9% (n = 340,000); active = well fitted falling curve with a large enough effect; inconclusive = small, poorly fitted or top-dose-only effect; inactive = no such curve, though single readings can be large or run the other way; further: the source files actives as falling curves though it sought activators and does not explain the sign; nearly all actives have a fitted effect of over 65% in size; many hits overshoot -100%
Target sequence (P80244 whole entry, looked up): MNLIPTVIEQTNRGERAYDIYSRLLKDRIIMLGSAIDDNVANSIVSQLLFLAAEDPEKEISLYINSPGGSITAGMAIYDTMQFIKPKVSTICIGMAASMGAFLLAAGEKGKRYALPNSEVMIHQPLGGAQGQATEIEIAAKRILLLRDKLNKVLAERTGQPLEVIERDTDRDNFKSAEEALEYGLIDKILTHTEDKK
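FRET quenching reversal measured ClpP activation: 10 microg/mL B. subtilis ClpP at pH 8 with the FRET-FV decapeptide, read at 430 nm after 320 nm excitation. The 20-min minus 0-min signal was scaled between DMSO/no-enzyme wells and ADEP (5.8 microM final).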
* hit, by the source's call; ? = inconclusive. Potency means the concentration at half of the fitted maximal effect. A portion of the library; rates above refer to the full screens.

| Molecule | PINK1 modulator | ClpP mod |
| --- | --- | --- |
| Cc1cccc(N2CCN(C(=O)c3cnn(-c4ccccc4Cl)c3C3CCN(C(=O)OC(C)(C)C)CC3)CC2C)c1 (stereo not given) | -0.7% | -2.3% |
| Cc1cccc(-c2nc(C)c(CCNC(=O)C(=O)Nc3ccccc3C#N)s2)c1 | 8.2% | -0.5% |
| COc1cccc(CNC(=O)Cn2ncn3nc(-c4cccs4)cc3c2=O)c1OC | 2.7% | -9.3% |
| Cc1ccsc1CCN1C(=O)N(c2ccccc2)C(=O)C1CC(=O)Nc1ccc(F)cc1 (stereo not given) | 1.9% | 1.2% |
| Fc1ccc(-c2csc(=Nc3cccc(C(F)(F)F)c3)n2Cc2ccc3c(c2)OCO3)cc1 | 10% | -0.9% |
| Cc1ccc(-c2n[nH]c3c2C(c2ccc(C(C)(C)C)cc2)NC3=O)cc1 (stereo not given) | 0.6% | -2.5% |
| COc1ccc(NC(=O)/C(C#N)=C/c2cc(C)n(-c3ccc(F)cc3)c2C)cc1 | 7.2% | -8.7% |
| CC(C)NC(=O)c1ccc(-n2c(-c3ccccc3)cc3c2CCCC3)cc1 | -0.6% | ? |
| CCC1CCc2nc3sc(C(=O)Nc4ccc(C)cc4C)c(N)c3cc2C1 (stereo not given) | 0.2% | 4.1% |
| COc1ccc(S(=O)(=O)Nc2cc(S(=O)(=O)c3ccccc3)c(O)c(C)c2C)cc1 | 1.8% | 0.4% |
| S=C(NCCCc1cnc[nH]1)NCCCN(Cc1ccc(Cl)cc1)c1ccc(Br)cc1 | 2.4% | -4.2% |
| CS(=O)(=O)N1Cc2cc(C(=O)NCC3CC3)nc(-c3cccc(-c4cccnc4)c3)c2[C@H]1CCO | 3.6% | 0.5% |

| Molecule | PINK1 modulator | ClpP mod |
| --- | --- | --- |
| Cc1cccc(NS(=O)(=O)c2ccc3c(c2)OCC(C(=O)N2CCCC2)O3)c1C (stereo not given) | 1.3% | 1.1% |
| COc1ccc(C(=O)NCc2nnnn2-c2ccc(C)c(C)c2)cc1 | 0.9% | 0.6% |
| Cc1cccc(C2C=C(c3ccc(C)c(C)c3)Nc3nnnn32)c1 (stereo not given) | 9.8% | -15% |
| CC(=O)Nc1cccc(-n2cc3c(c2-c2ccccc2Cl)c(=O)n(C)c(=O)n3C)c1 | 0.1% | 28µM* |
| Cc1cccc(NC(=O)Cn2c(=O)n(Cc3ccc(C(=O)NCc4ccc5c(c4)OCO5)cc3)c(=O)c3ccccc32)c1 | -0.2% | ? |
| CC(C)c1ccc(Nc2nc3c(S(=O)(=O)c4ccc(Br)cc4)nnn3c3ccsc23)cc1 | -0.7% | -29% |
| COc1ccc(CNC(=O)CCc2nnc3n(C)c(=O)c4sccc4n23)cc1 | 0.6% | -0.2% |
| CCOc1ccc(CNC(=O)C2CCN(C(=O)c3sccc3-n3cccc3)CC2)cc1 | 0.4% | 1.0% |
| CCOC(=O)N1CCc2c(sc3c2c(=O)n(-c2ccc(CC)cc2)c(=O)n3CC(=O)c2ccccc2)C1 | 2.5% | -4.1% |
| CCOc1cc(C)c(C(C)C)cc1S(=O)(=O)n1ccnc1CC | 0.9% | 0.3% |
| COc1cc(C(=O)Nc2ccc(Cl)c(-c3nc4ncccc4o3)c2)cc(OC)c1OC | 7.4% | 2.4% |
| Cc1ccc(CN2C(=O)SC(Nc3ccc(Cl)cc3)C2=O)cc1 (stereo not given) | 2.7% | 0.2% |

| Molecule | PINK1 modulator | ClpP mod |
| --- | --- | --- |
| CCc1ccc2oc(C(=O)Nc3cc(C)ccc3C)cc(=O)c2c1 | 5.1% | 0.2% |
| CCOCCCNC(=O)CN1C(=O)c2cccnc2Sc2ccccc21 | -0.1% | -0.1% |
| CC(=O)C[n+]1cccc(Br)c1 | -0.2% | -0.5% |
| CC(C)CC1C(=O)N2CCC[C@H]2[C@]2(O)O[C@](NC(=O)[C@@H]3C=C4c5cccc6[nH]c(Br)c(c56)C[C@H]4N(C)C3)(C(C)C)C(=O)N12 (stereo not given in full) | 1.1% | -17% |
| Cc1cc(C)n2nc(SCC(=O)Nc3cc(Cl)ccc3C)nc2n1 | -1.2% | -4.6% |
| CCc1ccc(-n2nc(C)c3c(C)cc(=O)n(CC(=O)NCc4ccc(C)cc4)c32)cc1 | 2.3% | 0.0% |
| O=S(=O)(c1ccc(Cl)cc1)c1nc(-c2ccco2)oc1SCc1ccc(F)cc1 | -1.2% | -12% |
| Nc1[nH]c(C(=O)c2ccccc2)c(-c2ccc(Br)cc2)c1C(=O)NC1CC1 | 0.8% | -3.2% |
| CN(C)c1ccc(CN(CC2CCCO2)C(=O)COc2ccc(Cl)cc2)cc1 (stereo not given) | -1.0% | -0.6% |
| O=c1c2ccccc2sn1-c1cc(S(=O)(=O)N2CCOCC2)ccc1N1CCCCC1 | -0.2% | 1.1% |
| Cc1ccc(C)c(N2CCN(S(=O)(=O)c3ccc(-c4cnc(C5CC5)o4)cc3)CC2)c1 | 6.8% | ? |
| Clc1ccc(-c2nnn3c2nc(N2CCCCC2)c2ccccc23)cc1 | 1.9% | -2.4% |

| Molecule | PINK1 modulator | ClpP mod |
| --- | --- | --- |
| CCc1ccc(CSc2nc(-c3ccccc3OC)nc3c2Cc2c(CO)cnc(C)c2O3)cc1 | -1.0% | -2.5% |
| COc1ccccc1C(=O)NCC(c1ccc(N(C)C)cc1)N1CCc2ccccc21 (stereo not given) | 0.3% | -23% |
| CCC(=O)N1CCc2cc(S(=O)(=O)Nc3cc(C)ccc3OC)ccc21 | 2.5% | -0.6% |
| N#Cc1ccc(-c2cccs2)nc1SCc1ccc(Br)cc1 | 2.3% | -20% |
| Cc1ccc2oc(=O)c3cc(C(=O)N(Cc4ccccc4)C(C)C)sc3c2c1 | 1.1% | ? |
| Cc1ccc(OCc2nc3ccccc3n2CC(C)C)cc1 | 5.5% | 0.3% |
| Cc1cccc(NC(=O)c2sc3nc(N4CCOCC4)c4c(c3c2N)CC(C)(C)OC4)c1 | -4.2% | ? |
| O=S(=O)(c1cccc(C(F)(F)F)c1)N1CCC(Oc2ccc(-n3cnnn3)cc2)CC1 | -0.9% | 2.2% |
| CCSc1ncc(Cl)c(C(=O)Nc2ccc(S(=O)(=O)Nc3nccc(C)n3)cc2)n1 | 1.1% | 0.6% |
| Cc1cccn2c(=O)c3cc(C(=O)NCc4ccccc4)c(=N)n(CCOCCO)c3nc12 | 0.6% | 4.3% |
| Cc1ccc(Cn2c(C)c3cnn(CC(=O)NCCc4ccc(Cl)cc4)c(=O)c3c2C)cc1 | -0.7% | ? |
| Cc1ccc(C)c(CN2C(=O)c3ccccc3S(=O)c3ccc(C(=O)NCc4ccccc4Cl)cc32)c1 (stereo not given) | 0.1% | -1.6% |

Some of the entries so far, with each value named:
Cc1cccc(NC(=O)c2sc3nc(N4CCOCC4)c4c(c3c2N)CC(C)(C)OC4)c1
  PINK1 modulator: -4.2%	ClpP mod: ?
O=S(=O)(c1cccc(C(F)(F)F)c1)N1CCC(Oc2ccc(-n3cnnn3)cc2)CC1
  PINK1 modulator: -0.9%	ClpP mod: 2.2%

Next section:
Values in the order – PINK1 modulator	ClpP mod
> Cc1nc(-c2ccc(C)c(S(=O)(=O)N3CCC(C(=O)NCc4ccc(F)cc4)CC3)c2)no1
    -1.0%	-1.4%
> Cc1ccc(-c2nc(SCC(=O)NCC3CCCO3)c3c(=O)n(C)c(=O)n(C)c3n2)cc1 (stereo not given)
    1.9%	0.6%
> COC(=O)c1cccc(NC2=NS(=O)(=O)c3ccccc32)c1
    -0.4%	0.7%
> COc1ccc(-c2nc3scc(CCNS(=O)(=O)c4ccc(Oc5ccccc5)cc4)n3n2)cc1
    0.2%	-8.1%
> CCCCN(C)C(=O)Cn1cnc2sc(C)c(S(=O)(=O)N3CCC(C)CC3)c2c1=O
    1.5%	0.4%
> Cc1ccc(-c2nc3c4ccccc4ccn3c2CC2CCCCC2)cc1
    0.5%	?
> COc1cccc(-n2cc(C(=O)NCc3cccc(Cl)c3)c3ccccc3c2=O)c1
    0.0%	25µM*
> COc1ccc(NS(=O)(=O)c2cnc(N)nc2)cc1Cl
    0.4%	0.7%
> CCCOc1ccc(CNC(=O)c2ccc(-n3c(C)cc4c3CCC(C)C4)cc2)cc1 (stereo not given)
    -0.6%	-9.8%
> Cc1ccc(C)c(N2CCN(C(=O)NCc3noc4ccccc34)CC2)c1
    1.5%	-0.4%
> COc1ccc(-n2c(SCc3ccccc3F)nc3c([nH]c4ccccc43)c2=O)cc1OC
    1.9%	-24%
> Cc1ccc(C)c(Cn2c(=O)n(Cc3ccccc3)c(=O)c3sc4ccccc4c32)c1
    0.1%	-5.5%
> Cc1cccc(CN2CCN(C3CN(Cc4cn(Cc5ccc(Cl)cc5)nn4)S(=O)(=O)C3)CC2)c1 (stereo not given)
    -0.4%	-6.4%
> COc1cc(C(=O)NCC(c2cccnc2)N2CCc3ccccc3C2)cc(OC)c1OC (stereo not given)
    -0.3%	-0.2%
> COCCn1c(=N)c(C(=O)NC2CCCC2)cc2c(=O)n3cc(C)ccc3nc21
    1.2%	-2.2%

Values in the order – PINK1 modulator	ClpP mod
> COc1ccc(-c2noc(-c3cc(-c4ccc(F)cc4)n[nH]3)n2)cc1
    0.7%	2.5%
> COc1cccc(NC(=O)C(=O)NCCc2sc(-c3cccc(C)c3)nc2C)c1
    2.2%	-10%
> Cc1ccc2nc(-c3ccc(O)cc3)c(Nc3ccc(Cl)cc3)n2c1
    0.8%	5.0%
> COCCNC(=O)CCCn1c(SCc2ccccc2Cl)nc2c(sc3ccccc32)c1=O
    5.2%	-2.7%
> COc1ccc(CNC(=O)c2cc3sccc3n2Cc2ccc(F)cc2)cc1
    5.9%	-9.3%
> O=C(CCn1cnc2ccccc2c1=O)NCc1ccccc1
    -4.2%	-1.4%
> COc1ccccc1C1Nc2c(sc3nc(C)cc(C)c23)C(=O)N1c1ccccc1 (stereo not given)
    0.7%	4.1%
> CCNC(=O)c1c2c(nc3ccccc13)C(=O)N(C1CCCCC1)C2
    2.4%	?
> Cc1ccc(NC(=O)C(=O)NCC(c2ccc3c(c2)OCO3)N2CCN(C)CC2)c(C)c1 (stereo not given)
    -2.3%	-2.0%
> COCc1cn(CC(=O)c2sc(NC(=O)C(C)(C)C)nc2C)nn1
    0.3%	-1.5%
> CCCCN(CCCC)CCNC(=O)c1cc(-c2cccnc2)nc2ccc(S(=O)(=O)N3CCC(C)CC3)cc12
    -1.2%	1.1%
> COC(=O)c1ccc(N2C(c3cc(OC)cc(OC)c3)=Cc3ccc(-c4cnc(OC)nc4)cc3C2CC(=O)C2CC2)cc1 (stereo not given)
    1.4%	5.3%
> COc1ccc(-c2cc(-c3ccc(C)cc3)nc3c2COc2ccccc2-3)cc1
    1.8%	4.0%
> CCc1ccc(NC(=O)CSc2nnc(-c3ccccc3)n2C)cc1
    -1.1%	-0.7%
> O=C(Cc1cccs1)NC1CC(=O)N(c2ccccc2)C1 (stereo not given)
    0.0%	2.0%

Values in the order – PINK1 modulator	ClpP mod
> CC(C)c1ccc(OC(=O)c2cc(-c3ccc4c(c3)OCCO4)on2)cc1
    -0.3%	-25%
> CCOC(=O)c1ccc(N2C(=O)c3n[nH]c(C)c3C2c2ccc(OCC)cc2)cc1 (stereo not given)
    7.3%	2.1%
> CCOc1ccccc1NC(=O)CN1Cc2ccccc2C1=O
    -0.1%	-2.7%
> CN(CC(=O)Nc1ccccc1Cl)S(=O)(=O)c1ccc(C(=O)N2CCOCC2)s1
    0.9%	1.5%
> O=C(CCCc1nc(-c2ccco2)no1)Nc1ccccc1[N+](=O)[O-]
    -0.1%	-1.5%
> Cn1c(=O)[nH]c(=O)c2c1nc(CN1CCN(c3ccccc3F)CC1)n2Cc1ccc(F)cc1
    0.6%	-0.4%
> COc1ccc(-c2cc(C(F)(F)F)nc(SCC(=O)N3CCC(C)CC3)n2)cc1
    0.0%	-7.8%
> CC(=O)c1ccc(N2CCN(C(=O)C3CCN(S(=O)(=O)c4c(C)noc4/C=C/c4ccccc4F)CC3)CC2)cc1
    0.9%	-15%
> Cc1ccc(N(C)S(=O)(=O)c2ccc3[nH]cc(C(=O)O)c(=O)c3c2)cc1C
    0.1%	-6.1%
> O=C(CSc1nnc(-c2ccccc2)o1)c1cccc([N+](=O)[O-])c1
    5.8%	-0.9%
> CC(=O)N1CCCc2cc(S(=O)(=O)N3CCN(c4ccc(F)cc4)CC3)ccc21
    -2.0%	0.0%
> Cc1ccc(CC(=O)NCc2nc(-c3cccc(C)c3)no2)cc1
    6.4%	1.9%
> CCOc1ccc(NC(=O)C2CCN(c3nc4ccccc4[nH]3)CC2)cc1
    -0.5%	1.3%
> COC(=O)c1c(C)oc2ccc(N(C(=O)c3ccncc3)S(=O)(=O)c3cc(C)c(C)cc3C)cc12
    4.6%	1.1%
> Cc1oc(-c2ccc(C(=O)Nc3ccc(F)cc3)cc2)nc1COc1ccccc1
    0.4%	1.1%
> CCOc1ccccc1-c1noc(CSc2nnc(-c3ccncc3)n2-c2ccc(F)cc2)n1
    0.5%	-1.7%
> COc1ccc(CNC(=O)CC2Oc3ccc(C)cc3NC2=O)cc1 (stereo not given)
    2.9%	1.2%

Molecules from the list above containing a nitro group on carbon:
Values in the order – PINK1 modulator	ClpP mod
> O=C(CCCc1nc(-c2ccco2)no1)Nc1ccccc1[N+](=O)[O-]
    -0.1%	-1.5%
> O=C(CSc1nnc(-c2ccccc2)o1)c1cccc([N+](=O)[O-])c1
    5.8%	-0.9%
